AmpC nodet inh: AmpC beta-lactamase inhibition, detergent-free assay. AID 585. P00811. Potency, µM (titrated, usually from 28.7 µM), for inactives: at the highest dose activity change, negative = inhibition. AmpC nitrocefin hydrolysis, absorbance 480 nm, no detergent; potencies from a single point are estimates. 71,000 tested, 1.8% active; active = falling curve, for most hits resting on a single point; inconclusive = weak or doubtful change; inactive = flat or rising curve; further: % of control where 0% means no effect; about half of the hits show no inhibition at the top dose; a quarter of the inactives give rising signals
Target sequence (P00811 whole entry, looked up): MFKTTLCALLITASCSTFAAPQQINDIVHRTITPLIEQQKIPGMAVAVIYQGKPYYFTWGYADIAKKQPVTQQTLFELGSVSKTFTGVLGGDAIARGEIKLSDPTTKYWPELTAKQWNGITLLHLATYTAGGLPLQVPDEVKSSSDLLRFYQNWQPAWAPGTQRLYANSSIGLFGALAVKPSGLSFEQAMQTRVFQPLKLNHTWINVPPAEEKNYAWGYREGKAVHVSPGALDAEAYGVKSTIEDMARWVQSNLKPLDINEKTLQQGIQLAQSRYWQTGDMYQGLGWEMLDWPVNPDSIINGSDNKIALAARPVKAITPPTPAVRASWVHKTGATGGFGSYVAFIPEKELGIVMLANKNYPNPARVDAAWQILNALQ
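Enzyme, pH 7.0 phosphate. Compound titrations were pre-incubated with AmpC for 15 min at room temperature before nitrocefin (stock 800 uM) addition; product formation was recorded at 480 nm every 20 s for 4 min.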
Numbers without * were called inactive; [ ] = another dose, or the depositor's remark. Potency means the concentration at half of the fitted maximal effect.

SMILES	AmpC nodet inh
CCOC(=O)N1CCN(C(=O)c2ccc(CNS(=O)(=O)c3ccc(OC)cc3)cc2)CC1	38%
COc1ccc2c(c1OC)C(=O)N1c3cccc(Cl)c3C(=O)OC21 (stereo not drawn)	4%
Cc1c(C(=O)Nc2ccc3c(c2)OCO3)sc2nc(-c3ccccc3)cn12	-11%
CCCCCn1ccc(=N)cc1	-2%
CCOCC(=O)Nc1ccc(S(=O)(=O)Nc2ncccn2)cc1	-8%
COc1ccc(NC2C=CS(=O)(=O)C2)c(OC)c1 (stereo not drawn)	12%
C=CCSC[C@@H]1Nc2cc(Cl)c(S(N)(=O)=O)cc2S(=O)(=O)N1	-12%[12.8 µM]
CCN(CC)C(=O)c1c[nH]c2ccc(S(=O)(=O)Nc3cc(C)cc(C)c3)cc2c1=O	6%
COc1ccc(OCCSc2nnc(-c3ccccc3)n2N)cc1	8%
O=S(=O)(NCc1cccs1)c1cccc2cccnc12	-16%
c1ccc(CC2CCN(c3nnnn3-c3ccccc3)CC2)cc1	30%
CC1N/C(=C\C(=O)c2ccccc2)N(O)C1(C)C (stereo not drawn)	1%
CN(C)C(=O)Oc1ccc(OC(=O)N(C)C)cc1	-2%
COc1cccc2cc(C(=O)N3CCc4ccccc43)c(=O)oc12	11%
COc1ccc(C2C(C(N)=O)=C(C)Nc3nc(-c4ccccc4)nn32)cc1OC (stereo not drawn)	24%
Cc1ccc(NC(=O)COS(=O)c2ccc(C)cc2)cc1 (stereo not drawn)	-10%
COc1ccc2c(c1)c1nc(SCC(C)C)n(CCO)c(=O)c1n2C	17%
CC(Sc1nnnn1C)C(=O)Nc1ccccc1-c1ccccc1 (stereo not drawn)	1%
N#Cc1c(SCC(=O)N2CCOCC2)nsc1SCC(=O)N1CCOCC1	-4%
CC(C)COP(=O)(c1ccc(N(C)C)cc1)C(O)c1ccccc1F (stereo not drawn)	84%
c1ccc(CCn2nnnc2C(c2cccs2)N2CCOCC2)cc1 (stereo not drawn)	26%
Cc1cc(C)n(-c2nc3c(c(=O)[nH]c(=O)n3C)n2C(C)C)n1	2%
CCOC(=O)c1c2c(n3ccccc13)C(=O)c1ccccc1C2=O	13%[5.75 µM]
COc1ccc2c3c(cccc13)OCC2=O	-15%
Nc1nc(SCc2ccccc2[N+](=O)[O-])c2[nH]cnc2n1	-9%[5.75 µM]
COc1cccc(NC(=O)c2cn(C)c(=O)c3cc(OC)c(OC)cc23)c1	138%
N/C(=N\S(=O)(=O)c1cccs1)c1ccccc1	1%
CCOC(=O)CSc1nc(N)c(C#N)c(-c2ccc(OCC)cc2)c1C#N	-4%
Cc1nn(Cc2ccccc2)c(C)c1NC(=O)CSc1nnc(-c2cc(Cl)ccc2O)n1C	34%
CC12CCC(=O)N1C(C(=O)OCC(=O)Nc1sccc1C#N)CS2 (stereo not drawn)	-3%
Cc1cc(C)cc(-n2cc3c(=O)n(C)c(=O)n(C)c3c2)c1	6%
CN1CCN(/C=N/c2c(C#N)cnn2-c2ccccc2)CC1	4%
c1ccc2nc3c(nc2c1)[nH]c1ccccc13	-5%
O=C(O)c1ccc(-c2ccc(O)c(F)c2)cc1	-7%
Cc1ccc(CNC(=O)CCS(=O)(=O)c2cccc3nonc23)cc1	-13%
CSc1cccc(NC(=O)c2c(Cl)cnn2C)c1	2%
Cc1nc2ccccc2c(=O)n1/N=C/c1ccc(N(C)C)cc1	18%
CCN1CCN(/C=N/c2nc3c(s2)CCCC3)CC1	0%
Cc1nc2ccc(NC(=O)N3CCSCC3)cc2s1	-1%
CC1CCN(C(=O)c2ccc(NC(=O)C3CCCO3)cc2)CC1 (stereo not drawn)	-8%
CCOC(=O)CC(=O)Nc1ccc(C(=O)OCC)cc1	9%
c1ccc2c(c1)ncn2CCC1CCCCC1	13%
COc1ccc(CCN(C)C(=O)CN2C(=O)c3ccccc3S2(=O)=O)cc1OC	8%
CCOC(=O)N1CCC(NC(=O)CS(=O)(=O)Cc2nc(-c3cccc(OC)c3)oc2C)CC1	101%
COc1ccc(CC(=O)Nc2ccc(-c3noc(-c4cccc(OC)c4)n3)cc2)cc1	-18%
c1coc(-c2nn3c(Cn4nnc5ccccc54)nnc3s2)c1	6%
CCC(C)C(=O)Nc1c2c(nc3c1CCC3)CCCC2 (stereo not drawn)	2%
O=C(COC(=O)c1ccc[nH]c1=O)c1ccc(Cl)s1	-12%
COc1ccc2nc(SCc3nc(N)nc(Nc4ccccc4)n3)[nH]c2c1	-3%
CCOC(=O)N1CCN(C(=O)Cc2ccc(-n3c(=O)[nH]c4ccccc4c3=O)cc2)CC1	14%
COCCNC(=O)C(c1ccc(C)o1)N(Cc1ccc(OC)cc1)C(=O)Cn1nnc2ccccc21 (stereo not drawn)	90%
COc1ncc2nc(-c3ccc(Cl)cc3)c(=O)n(-c3ccccc3)c2n1	12%
CC1=CC(=O)C2=C(C)CC(O)C3C(C)C(=O)OC3C12 (stereo not drawn)	15%
Cc1ccccc1C(=O)NCCN=C1NS(=O)(=O)c2ccccc21	-14%
CCCN1CCN(C(=O)Cn2ncc3ccccc32)CC1	-20%
CC(=O)Oc1cc(OC(C)=O)c2c(C)cc(=O)oc2c1	2%
CC(C)Oc1ccc(CSc2nnc3n(C)c(=O)c4c5c(sc4n23)CCCC5)cc1	94%
CCOC(=O)c1[nH]c(C)c(/C(O)=C2\C(=O)C(=O)N(CCCN(C)C)C2c2cccnc2)c1C (stereo not drawn)	-10%
COCCn1c(=O)c2c(nc3n2CCN3c2ccc(C)cc2)n(C)c1=O	12%
CCC(c1nnc(SCC(=O)Nc2ccc(C(=O)Nc3ccccc3OC)cc2)o1)N(C)C (stereo not drawn)	57%

An excerpt from above in order of heavy-atom count, largest number first.
SMILES	AmpC nodet inh
COCCNC(=O)C(c1ccc(C)o1)N(Cc1ccc(OC)cc1)C(=O)Cn1nnc2ccccc21 (stereo not drawn)	90%
CCOC(=O)c1[nH]c(C)c(/C(O)=C2\C(=O)C(=O)N(CCCN(C)C)C2c2cccnc2)c1C (stereo not drawn)	-10%
CCOC(=O)N1CCN(C(=O)c2ccc(CNS(=O)(=O)c3ccc(OC)cc3)cc2)CC1	38%
COc1ccc(CC(=O)Nc2ccc(-c3noc(-c4cccc(OC)c4)n3)cc2)cc1	-18%
CCN(CC)C(=O)c1c[nH]c2ccc(S(=O)(=O)Nc3cc(C)cc(C)c3)cc2c1=O	6%
COc1ccc(CCN(C)C(=O)CN2C(=O)c3ccccc3S2(=O)=O)cc1OC	8%
N#Cc1c(SCC(=O)N2CCOCC2)nsc1SCC(=O)N1CCOCC1	-4%
COCCn1c(=O)c2c(nc3n2CCN3c2ccc(C)cc2)n(C)c1=O	12%
COc1ccc2c(c1)c1nc(SCC(C)C)n(CCO)c(=O)c1n2C	17%
CC12CCC(=O)N1C(C(=O)OCC(=O)Nc1sccc1C#N)CS2 (stereo not drawn)	-3%
CCOCC(=O)Nc1ccc(S(=O)(=O)Nc2ncccn2)cc1	-8%
Cc1cc(C)n(-c2nc3c(c(=O)[nH]c(=O)n3C)n2C(C)C)n1	2%
Cc1ccc(NC(=O)COS(=O)c2ccc(C)cc2)cc1 (stereo not drawn)	-10%
O=S(=O)(NCc1cccs1)c1cccc2cccnc12	-16%
CC1=CC(=O)C2=C(C)CC(O)C3C(C)C(=O)OC3C12 (stereo not drawn)	15%
CSc1cccc(NC(=O)c2c(Cl)cnn2C)c1	2%
O=C(O)c1ccc(-c2ccc(O)c(F)c2)cc1	-7%
COc1ccc2c3c(cccc13)OCC2=O	-15%
CCCCCn1ccc(=N)cc1	-2%

Next section:
SMILES	AmpC nodet inh
CC(C)OCCCNC(=O)c1cc2c(=O)n(C)c3ccccc3c2n1C	29%
CN1CCN(S(=O)(=O)c2ccc(NC(=O)Cc3cccs3)cc2)CC1	4%
CC(=O)N1[C@H](C)C=C[C@]1(Cc1ccccc1)C(=O)NCc1cc(F)cc(C(F)(F)F)c1	55%
CC1CCN(C(=O)C(NS(=O)(=O)c2cccc3nsnc23)c2ccccc2)CC1 (stereo not drawn)	5%
O=C1CSC2(CCCCC2)N1CCO	11%
COC(=O)CN(c1ccc(OC)cc1)S(=O)(=O)c1c(C)noc1C	6%
COC(=O)c1ccc(NC2=CC(=O)CC(C)(C)C2)cc1	-1%
COC(=O)c1cccc(Oc2nc3c(c(=O)n(C)c(=O)n3C)n2C(C)C)c1	14%
CCOC(=O)NC(=O)CSc1nnnn1-c1ccc(C)cc1	2%
COc1ccc(-c2cc(C(=O)N3CCOCC3)no2)cc1OC	0%
Cc1ccc(NC(=O)c2cccc(N3C(=O)CCC3=O)c2)nc1	1%
CCn1c(COc2cccc3cccnc23)nnc1SCC(=O)O	4%
O=C1c2ccccc2C(Nc2ccc(S(=O)(=O)N3CCCCC3)cc2)N1c1ccccn1 (stereo not drawn)	3.2µM*[single pt active]
CCN(CC)S(=O)(=O)c1ccc(NC2CCCc3ccccc32)nc1 (stereo not drawn)	4%
COC(=O)c1sccc1NC(=O)Cn1cnc2c1c(=O)n(C)c(=O)n2C	10%
Cn1c(Cn2c(=O)sc3ccccc32)nnc1SCC(=O)N1CCc2ccccc21	4µM*[single pt active]
COc1ccc(-c2cc(C(=O)Nc3ccccc3SC)no2)cc1OC	33%
CCC(C)[C@H](NC(=O)Nc1ccc(C(C)=O)cc1)C(=O)OC (stereo partly drawn)	-8%
O=C(CCCCCn1c(=S)[nH]c2cc3c(cc2c1=O)OCO3)N1CCN(Cc2ccccc2)CC1	25%
O=C(CNC1CCCCCC1)Nc1ccc(S(=O)(=O)NC2CC2)cc1	-4%
Cc1ccccc1OCc1nc(-c2ccc(NC(=O)c3ccco3)cc2)no1	-4%
CCCC(C)n1[nH]c(=O)c2c1NC(=O)CSC2c1ccc(OC)c(OC)c1 (stereo not drawn)	7%
Fc1cccc(Cl)c1Cn1nnc2c(N3CCC4(CC3)OCCO4)ncnc21	85%
Cc1cccc(-c2noc(CCC(=O)NCc3ccccc3)n2)c1	18%
Cc1occc1-c1nc(-c2ccncc2)no1	10%
Cc1cc(C)c(C)c(OCC(=O)NCCN(C)C)c1	21%
O=C(O)c1nc2nc(Cl)c(Cl)nc2[nH]1	5%[5.75 µM]
O=C(NC1CCCCC1)C(c1cccs1)N(Cc1cccs1)C(=O)c1ccco1 (stereo not drawn)	23%
COc1ccc(Cn2nnnc2CN(Cc2cc3ccc(C)cc3[nH]c2=O)C2CCCC2)cc1	58%
Nc1nc2c3ccccc3nc(Cc3ccccc3)n2n1	3%
Cc1cc(C(=O)Nc2ccc(N3CCOCC3)cc2)c2ccccc2n1	94%
O=C(C1CCN(S(=O)(=O)Cc2ccccc2)CC1)N1CCN(c2ncccn2)CC1	43%
O=C(Nc1ccccc1)N(CCN1CCOCC1)Cc1cccc(Cl)c1	39%
Cc1ccc(-c2noc(C3CCN(S(C)(=O)=O)CC3)n2)o1	12%
CCCOc1ccc(C2c3c(oc4ccccc4c3=O)C(=O)N2CCN(CC)CC)cc1OC (stereo not drawn)	49%
O=C(CN1C(=O)C2(OCCO2)c2ccccc21)c1ccc(F)cc1	6%
Cc1nn(CC(=O)NCC2CCCO2)c(=O)c2ccccc12 (stereo not drawn)	-11%
Cc1ccc(N2CCN(c3cc(C)nc4c5c(C)cc(C)nc5nn34)CC2)cc1	6%
CC1CCN(CCCn2c(=S)[nH]c3ccc(N4CCOCC4)cc3c2=O)CC1	14%
CCCn1c(-c2ccc(F)cc2)nc2c(NCCCN(CC)CC)nc(C)nc21	22%
C[C@H](NC(=O)OC(C)(C)C)c1nnc(SCC(N)=O)o1	-4%
CCC(C)(C)n1nnnc1C(C(C)C)N1CCSCC1 (stereo not drawn)	10%
O=C(NCc1ccco1)C(c1cccs1)N(C(=O)C1COc2ccccc2O1)c1cccc(O)c1 (stereo not drawn)	-14%
C[C@@H](C(=O)O)c1ccc(N2Cc3ccccc3C2=O)cc1	-13%[12.8 µM]
Cn1cnnc1SCc1ccc(C#N)cc1Cl	6%
CC1=C(C(=O)OC(C)C)C(C2CC=CCC2)NC(=O)N1 (stereo not drawn)	16%
CC1CCN(C(=O)C2c3ccccc3C(=O)N3CCc4ccccc4C23)CC1 (stereo not drawn)	30%
CCOC(=O)c1ccc(N2C(=O)c3n[nH]c(C)c3C2c2ccccn2)cc1 (stereo not drawn)	41%
O=C(c1cccc(F)c1)N1CCC2(CCCN(c3ccccc3)C2)CC1	80%
O=C(OCC(=O)N1CCN(c2ccccc2)CC1)c1ccc2ncsc2c1	48%
COc1ccc(C(C)=O)cc1COC(=O)Cc1n[nH]c(=O)c2ccccc12	7%
OCc1ccccc1CNCc1ccccc1	0%
Cn1c(=O)c2c(ncn2CC(=O)Nc2ccccc2Sc2ccccc2)n(C)c1=O	55%
Cc1cccc2[nH]c3c(=O)n(CCN4CCNCC4)cnc3c12	7%
Cc1cccnc1-n1c(CN2C(=O)c3ccccc3C2=O)nc2ccccc2c1=O	31%
COC(=O)N1CCC2(CCN(Cc3nccs3)CC2)CC1	-6%
CCOC(=O)C1=C(C)NC(=O)NC1c1ccc(N(C)C)cc1 (stereo not drawn)	1%
COc1cccc(NC(=O)CC2(CC(=O)O)CCCC2)c1	-18%
CCOc1cc(C(=O)NC(C)COC)cc(OCC)c1OCC (stereo not drawn)	21%
COC(=O)[C@@]1(Cc2ccccc2)[C@H]2c3cc(C(=O)N4CCCC4)n(Cc4ccccn4)c3C[C@H]2CN1C(=O)c1ccccc1	156%
CCOC(=O)C1[C@H]2C(=O)N(C(C)c3ccc(OC)cc3)C[C@]23C=C[C@H]1O3 (stereo partly drawn)	-11%

Screening results from PubChem BioAssay.

This is a subset; the hit share may differ from the screen's.
